From PubChem BioAssay
Mtb H37Rv – M. tuberculosis H37Rv growth inhibitors, H37Rv strain (AID 1626) | M. tuberculosis H37Rv growth inhibition; higher % means a stronger effect | inhibition, % at 10 µM, or IC50 in µM where a hit was titrated | actives 0.95% (n = 220,000);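 active = confirmed in a dose series; inconclusive = inhibition above 80% but not taken into the dose series; inactive = below 80% or under 30% at every dose of the series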;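 also: bacteria incubated seven days before Alamar blue readout; 0% = bacteria only wells and 100% = bacteria with antibiotic wells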
RecA intein inh – Mtb RecA intein splicing inhibitors, primary screen, biochemical, fluorescence, HTS; inhibition, %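 (about 9 µM by stock and volumes)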; actives 0.75% (n = 290,000); cell-free RecA intein splicing; AID 2221, 2009; Protein RecA (Mycobacterium tuberculosis (strain ATCC 25618 / H37Rv)), P9WHJ3; in the data active = inhibition above about 30%; inconclusive = no clear call, values can overlap the other calls;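 also: 0% = vehicle wells and 100% = reference inhibitor control wells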
Target sequence (P9WHJ3 whole entry, looked up): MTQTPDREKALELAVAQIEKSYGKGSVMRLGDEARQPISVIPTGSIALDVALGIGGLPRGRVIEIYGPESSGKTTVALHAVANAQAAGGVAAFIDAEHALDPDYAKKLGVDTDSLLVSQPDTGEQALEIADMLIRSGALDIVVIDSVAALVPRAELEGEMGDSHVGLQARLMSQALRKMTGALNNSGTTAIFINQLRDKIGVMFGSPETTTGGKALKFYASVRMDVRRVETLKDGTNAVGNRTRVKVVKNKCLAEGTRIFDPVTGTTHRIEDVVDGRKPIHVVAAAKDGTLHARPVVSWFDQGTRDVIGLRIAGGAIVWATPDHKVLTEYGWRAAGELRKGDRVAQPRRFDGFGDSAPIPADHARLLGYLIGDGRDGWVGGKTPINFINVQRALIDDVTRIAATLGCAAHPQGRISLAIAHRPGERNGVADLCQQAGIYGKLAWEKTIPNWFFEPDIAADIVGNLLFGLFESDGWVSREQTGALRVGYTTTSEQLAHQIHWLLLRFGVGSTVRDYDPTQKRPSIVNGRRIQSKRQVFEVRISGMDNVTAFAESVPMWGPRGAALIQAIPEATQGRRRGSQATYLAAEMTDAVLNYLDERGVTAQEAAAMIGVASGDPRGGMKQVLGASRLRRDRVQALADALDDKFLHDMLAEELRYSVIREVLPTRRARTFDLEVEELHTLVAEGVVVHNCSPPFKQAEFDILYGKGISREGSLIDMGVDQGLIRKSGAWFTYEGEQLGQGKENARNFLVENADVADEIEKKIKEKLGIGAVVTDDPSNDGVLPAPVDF
Arbovirus anti – antivirals against arbovirus infection, primary screen, cell-based, full library, 10K replicate subset. arbovirus infection cell-based antiviral screen. actives 0.37% (n = 200,000). inhibition, % at 10 µM;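 active = inhibition from about 30%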;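 also: bluetongue infection of BSR cells; cell survival read as ATP light after 72 h; 0% = infected wells without compound and 100% = uninfected wells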
Arbovirus anti repeat – also measured in Arbovirus anti; calls as there; inhibition, %; measured here: 10K subset replicate screen; many hits read low in the repeat;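 first of two repeat runs on a subset; 0% = infected and 100% = uninfected wells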
* hit, by the source's call; ? = inconclusive; / = not tested or not shown. A portion of the library (hit frequency here may not be typical).

The first 5 entries, ahead of the listing:
SMILES | Mtb H37Rv | RecA intein inh | Arbovirus anti | others
CC(=O)c1ccc(N2CCN(C(=O)c3cc4c(=O)n(C)c5ccccc5c4n3C)CC2)cc1 | / | / | 11 | Arbovirus anti repeat=1
CCc1cc2c(=O)c(-c3nc4ccccc4[nH]3)coc2c(CN2CCCC(C)C2)c1O (stereo not given) | / | / | 13 | Arbovirus anti repeat=-6
Cc1ccc(S(=O)(=O)N2CCCCC2)cc1C(=O)Nc1ncn[nH]1 | / | / | -5
CN1CCN(Cc2nc3c(c(=O)n(C)c(=O)n3C)n2CCc2ccccc2)CC1 | / | / | -3 | Arbovirus anti repeat=-2
CC(=O)C1=C(C)N=c2s/c(=C/c3ccc4c(c3)OCO4)c(=O)n2C1c1ccc(N(C)C)cc1 (stereo not given) | / | / | 11 | Arbovirus anti repeat=9

The list itself (from the top)
SMILES | Mtb H37Rv | RecA intein inh | Arbovirus anti | others
CC(=O)c1ccc(N2CCN(C(=O)c3cc4c(=O)n(C)c5ccccc5c4n3C)CC2)cc1 | / | / | 11 | Arbovirus anti repeat=1
CCc1cc2c(=O)c(-c3nc4ccccc4[nH]3)coc2c(CN2CCCC(C)C2)c1O (stereo not given) | / | / | 13 | Arbovirus anti repeat=-6
Cc1ccc(S(=O)(=O)N2CCCCC2)cc1C(=O)Nc1ncn[nH]1 | / | / | -5
CN1CCN(Cc2nc3c(c(=O)n(C)c(=O)n3C)n2CCc2ccccc2)CC1 | / | / | -3 | Arbovirus anti repeat=-2
CC(=O)C1=C(C)N=c2s/c(=C/c3ccc4c(c3)OCO4)c(=O)n2C1c1ccc(N(C)C)cc1 (stereo not given) | / | / | 11 | Arbovirus anti repeat=9
CN1CCN(Cc2nc3c(c(=O)n(C)c(=O)n3C)n2Cc2ccccc2Cl)CC1 | / | / | -1 | Arbovirus anti repeat=-4
Cn1c(C(=O)N2CCN(c3ccccn3)CC2)cc2c(=O)n(C)c3ccccc3c21 | / | / | -2 | Arbovirus anti repeat=0
O=C(CNCc1ccc(Cl)cc1)Nc1cccc(C(=O)O)c1 | / | / | -1
Cn1c(C(=O)NCCCN2CCN(c3ccc(F)cc3)CC2)cc2c(=O)n(C)c3ccccc3c21 | / | / | -4 | Arbovirus anti repeat=-7
O=C(Nc1ccc2c(c1)nc1n2CCN(C2CCCCC2)C1)c1ccco1 | -7% | / | /
COn1c(C)c(C)c2c3nonc3ccc21 | 2% | / | /
Cc1c2oc3c(C)ccc(C(=O)N[C@@H]4C(=O)N[C@H](C(C)C)C(=O)N5CCC[C@H]5C(=O)N(C)CC(=O)N(C)[C@@H](C(C)C)C(=O)O[C@@H]4C)c3nc-2c(C(=O)N[C@@H]2C(=O)N[C@H](C(C)C)C(=O)N3CCC[C@H]3C(=O)N(C)CC(=O)N(C)[C@@H](C(C)C)C(=O)O[C@@H]2C)c(N)c1=O | ? | / | /
O=C(O)C[C@@H]1C(=O)O[C@@H]2C(COC(=O)c3cc(O)c(O)c(O)c3)O[C@@H](OC(=O)c3cc(O)c(O)c(O)c3)[C@@H](OC(=O)c3cc(O)c(O)c4c3[C@H]1[C@H](O)C(=O)O4)[C@H]2OC(=O)c1cc(O)c(O)c(O)c1 (stereo not given in full) | 4% | / | /
O=c1[nH][nH]c(=S)n1-c1ccccc1C(F)(F)F | -6% | / | /
CC(C)(C)NCC(O)c1ccc(O)c(CO)c1 (stereo not given) | -13% | / | /
Cn1c2ccc(F)cc2c2nnc(NN)nc21 | -3% | / | /
NS(=O)(=O)c1ccc(N/N=C/c2ccc(O)c(O)c2O)c([N+](=O)[O-])c1 | 1% | / | /
Cc1cccc2c1c1ccc3c(c1n2C)C(=O)C=CC3=O | 4% | / | /
Cc1ccc2c(c1C)NC(=O)C21N2CCCC2C(C(=O)c2ccc3ccccc3c2)C12C(=O)Nc1ccccc12 (stereo not given) | 39µM* | / | /
CCOC(=O)CC1C(=O)NCCN1c1nc2c(C)cccn2c(=O)c1/C=C1\SC(=S)N(CC(C)C)C1=O (stereo not given) | 2% | / | /
N#C/C(=C\c1ccc(C(=O)O)cc1)c1nc2sc3c(c2c(=O)[nH]1)CCCC3 | -7% | / | /
CCOc1ccc(NC(=O)CN2C(=O)/C(=C3\SC(=S)N(C4CCS(=O)(=O)C4)C3=O)c3ccccc32)cc1 (stereo not given) | -8% | / | /
CCCN1C(=O)/C(=C/c2c(N3CCNC(=O)C3CC(=O)OC)nc3c(C)cccn3c2=O)SC1=S (stereo not given) | 5% | / | /
Nc1c(Cl)cc(S(N)(=O)=O)cc1S(N)(=O)=O | -12% | / | /
O=C1NNC(c2ccccc2)=N/C1=C\c1ccccc1Cl | 6% | / | /
CCC1=C[C@H]2CN(C1)Cc1c([nH]c3ccccc13)[C@@](C(=O)OC)(c1cc3c(cc1OC)N(C)[C@H]1[C@@](O)(C(=O)OC)[C@H](OC(C)=O)[C@]4(CC)C=CCN5CC[C@]31[C@@H]54)C2 | -10% | / | /
O=C1CC(=O)c2c1cccc2[N+](=O)[O-] | 2% | / | /
O=C(Nc1cccc(NC(=O)c2ccc(Br)o2)c1)c1ccccc1 | / | 8.3 | /
COc1cc(C(C(=O)NC2CCCCC2)N(C(=O)c2cnccn2)c2ccccc2)cc(OC)c1OC (stereo not given) | / | 2.6 | /
Cc1cc(C(=O)N2CCCC(C(=O)c3ccc(Oc4ccccc4)cc3)C2)n[nH]1 (stereo not given) | / | 7.1 | /
Cc1ccc2c(C)c(C(=O)N3CCN(c4ncccn4)CC3)oc2c1C | / | 3.7 | /
CCOCc1nnc(NC(=O)c2c(-c3ccccc3)noc2C)s1 | / | 1.6 | /
COc1cccc(CC(NC(C)=O)C(=O)NC2CCN(C(=O)NCc3ccccc3)CC2)c1 (stereo not given) | / | 0.4 | /
O=[N+]([O-])c1cccc(S(=O)(=O)Nc2cccc(-c3ccc(N4CCCC4)nn3)c2)c1 | / | 1.3 | /
COc1ccc(C(=O)N2CCC(NC(=O)C(Cc3ccccc3OC)NC(C)=O)CC2)cc1 (stereo not given) | / | -1.2 | /
CCOC(=O)C1CCCN(C(=O)CCCn2nnnc2CN2CCOCC2)C1 (stereo not given) | / | 0.6 | /
COc1ccc(NC(=S)NC(=O)c2ccccc2)cn1 | / | -3.8 | /
Cc1c(OC(C(=O)O)c2ccccc2)ccc2c3c(c(=O)oc12)CCC3 (stereo not given) | / | 1.3 | /
COc1ccc(NC(=O)c2ccco2)cc1NC(=O)c1cccc(F)c1 | / | -0.2 | /
COc1ccccc1N(C(=O)c1snc(C(N)=O)c1N)C(C(=O)NCc1ccccc1)c1ccc(O)cc1 (stereo not given) | / | 0.4 | /

Arranged by molecular weight (smallest number first): some entries from above
SMILES | Mtb H37Rv | RecA intein inh | Arbovirus anti | others
O=C1CC(=O)c2c1cccc2[N+](=O)[O-] | 2% | / | /
CCOCc1nnc(NC(=O)c2c(-c3ccccc3)noc2C)s1 | / | 1.6 | /
Cc1ccc2c(C)c(C(=O)N3CCN(c4ncccn4)CC3)oc2c1C | / | 3.7 | /
N#C/C(=C\c1ccc(C(=O)O)cc1)c1nc2sc3c(c2c(=O)[nH]1)CCCC3 | -7% | / | /
O=C(Nc1cccc(NC(=O)c2ccc(Br)o2)c1)c1ccccc1 | / | 8.3 | /
CCOC(=O)C1CCCN(C(=O)CCCn2nnnc2CN2CCOCC2)C1 (stereo not given) | / | 0.6 | /
CCC1=C[C@H]2CN(C1)Cc1c([nH]c3ccccc13)[C@@](C(=O)OC)(c1cc3c(cc1OC)N(C)[C@H]1[C@@](O)(C(=O)OC)[C@H](OC(C)=O)[C@]4(CC)C=CCN5CC[C@]31[C@@H]54)C2 | -10% | / | /

Going on with the list:
SMILES | Mtb H37Rv | RecA intein inh | Arbovirus anti | others
CCOc1ccccc1N(C(=O)c1snc(C(N)=O)c1N)C(C(=O)NCc1ccccc1)c1ccc(O)cc1 (stereo not given) | / | -2.3 | /
COc1ccccc1N(C(=O)c1snc(C(N)=O)c1N)C(C(=O)NCc1ccccc1)c1ccc(C)o1 (stereo not given) | / | -0.4 | /
Cc1cc2cc3c(cc2nc1SCC(=O)N1CCCC1)OCCO3 | / | 5.1 | /
C/C(=N\NC(=O)c1cc(Br)ccc1O)c1ccccn1 | / | -0.4 | /
CCOc1ccc(C(=O)N2CCN(Cc3ccccc3)CC2)cc1OCC | / | -0.8 | /
Cc1ccc(Cn2nc3c4cc(F)ccc4n(Cc4ccc(F)cc4)cc-3c2=O)cc1 | / | 0.1 | /
CC(C)CN(C(=O)c1cccs1)C1CCS(=O)(=O)C1 (stereo not given) | / | 0.4 | /
CCn1cc(C(=O)NN)c(=O)c2cc(F)c(NC3CCCCC3)cc21 | / | 15 | /
CCOc1ccccc1Nc1nc2ccc(C)cc2n2cnnc12 | / | -0.4 | /
Cn1ncc([N+](=O)[O-])c1C(=O)NC1CCCCCC1 | / | 3.9 | /
O=S(=O)(NNc1cccc(Cl)n1)c1ccc(Cl)cc1 | / | -1.6 | /
Cc1ccc(C(=O)NC(=S)N2CCN(C)CC2)cc1Br | / | 2.2 | /
Cc1ccc(O)c(CNc2nc3ccccc3[nH]2)c1 | / | -2.0 | /
Cn1c(/C=C/c2ccc(Br)cc2)c([N+](=O)[O-])c(=O)n(C)c1=O | / | 3.0 | /
CC(C)(O)C#Cc1ccc(C(=O)N2CCC(C(N)=O)(N3CCCCC3)CC2)o1 | / | -0.6 | /
COc1ccc(NC(=O)CN2CCN(CC(=O)Nc3ccccc3OC)CC2)c(OC)c1 | / | -0.5 | /
Cn1nccc1C(=O)OCC(=O)Nc1ccccc1Cl | / | -1.8 | /
O=C(O)c1cccc(NS(=O)(=O)c2ccc(S(=O)(=O)N3CCOCC3)cc2)c1 | / | 4.0 | /
COc1ccc(C(=O)NC2CC2)cc1OC1CCN(Cc2ccc(NC(C)=O)cc2)CC1 | / | -1.0 | /
Cc1ccc(C(=O)C2CCN(S(=O)(=O)c3ccccc3C(=O)O)CC2)cc1 | / | -0.6 | /
O=C(CCc1ccccn1)N1CCCC(N2CCN(c3ccc(F)cc3)CC2)C1 (stereo not given) | / | -4.6 | /
CCOc1cccc(C2C(C(=O)c3ccc(C)o3)=C(O)C(=O)N2Cc2ccccc2)c1 (stereo not given) | / | 5.7 | /
COc1ccc2[nH]c(C(=O)N3CCNCC3)cc2c1OC | / | 1.7 | /
CCc1ccccc1N(C(=O)c1snc(C(N)=O)c1N)C(C(=O)NCC1CCCO1)c1ccc(OC)c(OC)c1 (stereo not given) | / | -1.5 | /
CCc1cc(CNC(=O)C2CCC(=O)N(CCc3cccc(F)c3)C2)on1 (stereo not given) | / | -2.8 | /
COc1cccc(CCNC(=O)C2CCC(=O)N(C3CC3)C2)c1OC (stereo not given) | / | -2.7 | /
CN1CCN(c2ccccc2NC(=O)c2ccc(-c3ccc(Cl)c(Cl)c3)o2)CC1 | / | 2.0 | /
Cc1cc(N2CCN(c3ccccc3)CC2)nc2ccccc12 | / | 12 | /
Cc1ccc(C(=O)N2CC(=O)Nc3ccc(C)cc3C2c2ccccc2)cc1 (stereo not given) | / | 3.4 | /
Cc1ccc(-n2ncc3c(SCC(N)=O)ncnc32)cc1C | / | -0.6 | /
O=C(O)c1ccc(CN2C(=O)c3cccc4c([N+](=O)[O-])ccc(c34)C2=O)cc1 | / | -94 | /
COc1ccccc1N(CC(=O)NC1CCCC1)C(=O)CCCC(=O)Nc1ccccn1 | / | 1.7 | /
CC(=O)NC(Cc1ccc(C)cc1)C(=O)NC1CCN(C(=O)NCc2ccccc2)CC1 (stereo not given) | / | -0.8 | /
Cc1ccccc1N1CCN(C2CCCN(C(=O)c3cn4cccc(C)c4n3)C2)CC1 (stereo not given) | / | -2.9 | /
Cc1oncc1C(=O)Nc1cccc2ccccc12 | / | -1.4 | /
COc1ccc(N2C(=O)/C(=C/c3ccc(C)o3)C(=O)NC2=S)cc1 | / | 2.1 | /
COc1ccc(-c2coc3c(C)c4oc(=O)c(CC(=O)O)c(C)c4cc23)cc1 | / | -1.0 | /
CCc1nc(CNC(=O)C2CCC(=O)N(Cc3ccccc3F)C2)no1 (stereo not given) | / | -7.3 | /
Cc1ccc(NC(=O)CSc2nnc3ccc(-c4ccncc4)nn23)cc1 | / | 2.9 | /
O=C(CN(c1ccccc1Cl)S(=O)(=O)c1ccccc1)NCc1ccccc1 | / | 1.6 | /
O=S1(=O)CCO[C@H]2Cc3ccccc3[C@H]2N1Cc1ccccc1 | / | 3.3 | /
Cn1c(-c2ccccc2)cnc1NCc1ccc(F)cc1 | / | -0.2 | /
CC[C@@]1(c2ccccc2OC)C(=O)N(C(=O)OC)N1C(=O)OC | / | 2.4 | /
NC(=O)c1nsc(C(=O)N(Cc2ccco2)C(C(=O)NCC2CCCO2)c2ccc(F)cc2)c1N (stereo not given) | / | -0.4 | /
CC1=NN(c2ccc(C)cc2)C(=O)/C1=C/c1ccc(-c2cc([N+](=O)[O-])ccc2O)o1 | / | 7.9 | /
O=C(NCCc1cccc(F)c1)C1CCC(=O)N(C2CCCCCC2)C1 (stereo not given) | / | 7.5 | /
COc1ccccc1-c1c(C)oc2c(CN3CCCC(C)C3)c(O)ccc2c1=O (stereo not given) | / | 0.1 | /
CC(=O)c1ccc(OCC(=O)NC2CCCN(Cc3ccccc3F)C2)cc1 (stereo not given) | / | 0.9 | /
COC(=O)c1cc(=O)c2ccc(OC)cc2o1 | / | 1.0 | /
O=C(NCc1cccc(C(F)(F)F)c1)c1ccc2c(c1)OCO2 | / | -8.0 | /
CCCc1ccc2oc(C(=O)NCCc3nc(C(=O)OCC)cs3)c(C)c2c1 | / | -1.0 | /
